Compound activity: PubChem, Broad Institute
FGF22 binding – binders of human FGF22 protein, primary screen, FGF22 synaptogenesis inhibitor project, biophysical, thermal shift, single point. Fibroblast growth factor 22 (Homo sapiens), Q9HCT0. recombinant FGF22 thermal shift, SYPRO orange fluorescence; percent of sucrose octasulfate shift, DMSO zero. calls only at 9.99 µM. 340,000 compounds, 1.5% hits. AID 651658, 2012;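 active = melting point raised past a set limit in the mean and every replicate; three in four hits are not shown here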
Target sequence (Q9HCT0 whole entry, looked up): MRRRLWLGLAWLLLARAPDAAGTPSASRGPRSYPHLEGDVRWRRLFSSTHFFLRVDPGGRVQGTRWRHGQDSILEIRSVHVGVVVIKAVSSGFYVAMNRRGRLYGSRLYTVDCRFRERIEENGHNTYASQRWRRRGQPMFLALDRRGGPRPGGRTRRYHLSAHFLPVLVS
Calls only; i = inactive.

C/C=C/c1ccc([C@H]2[C@H](CO)N3CCCCN(S(=O)(=O)c4cccc(C)c4)C[C@@H]23)cc1
  FGF22 binding: i

CCCNC(=O)c1cc2c(c(-c3cccc(-c4cccc(F)c4)c3)n1)[C@H](CCO)N([S@@](=O)C(C)(C)C)C2
  FGF22 binding: i

O=S1(=O)CCSC[C@@H](CN2CCOCC2)N1
  FGF22 binding: i

CC(C)C#Cc1ccc2c(c1)O[C@@H](CN(C)S(C)(=O)=O)[C@@H](C)CN([C@H](C)CO)S2(=O)=O
  FGF22 binding: i

CS(=O)(=O)N1CC2(C1)[C@@H](c1ccccc1)[C@@H](CO)N2CCC(F)(F)F
  FGF22 binding: i

COc1ccccc1NC(=O)N[C@H]1CC[C@H](CCn2cc(-c3ccccc3OC)nn2)O[C@@H]1CO
  FGF22 binding: i

CNC(=O)C[C@H]1CC[C@@H]2[C@H](COc3ccc(NC(=O)Nc4c(C)noc4C)cc3C(=O)N2C)O1
  FGF22 binding: i

CN(C)C(=O)[C@@H]1[C@@H](CO)[C@@H]2Cn3c(ccc(-c4ccncc4)c3=O)[C@H]1N2CC1CC1
  FGF22 binding: i

CO[C@H]1CN(C)C(=O)c2ccc(NS(=O)(=O)c3ccc(Oc4ccccc4)cc3)cc2OC[C@H](C)NC[C@@H]1C
  FGF22 binding: i

CO[C@@H]1CN(C)C(=O)c2ccc(NC(C)=O)cc2OC[C@H](C)N(C(=O)c2cccnc2)C[C@H]1C
  FGF22 binding: i

CCCN(C)C[C@H]1Oc2cc(C#Cc3ccccn3)ccc2S(=O)(=O)N([C@@H](C)CO)C[C@H]1C
  FGF22 binding: i

Cc1noc(C)c1S(=O)(=O)Nc1ccc2c(c1)C(=O)N([C@@H](C)CO)C[C@H](C)[C@H](CN(C)S(=O)(=O)c1ccccc1)OCCCC[C@H](C)O2
  FGF22 binding: i

C[C@@H]1CN([C@H](C)CO)C(=O)c2cc(C#CC3CCCCC3)cnc2O[C@@H]1CN(C)C(=O)c1ccncc1
  FGF22 binding: i

CO[C@H]1CN(C)C(=O)c2cc(NC(=O)Nc3ccccc3)ccc2OC[C@H](C)N(C(=O)Nc2c(C)noc2C)C[C@@H]1C
  FGF22 binding: i

COc1ccccc1NC(=O)N1C[C@H](O)COC[C@H]2O[C@@H](CC(=O)NCCc3ccncc3)CC[C@@H]21
  FGF22 binding: i

Four structures already listed, arranged by SMILES length, ascending.
COc1ccccc1NC(=O)N[C@H]1CC[C@H](CCn2cc(-c3ccccc3OC)nn2)O[C@@H]1CO
  FGF22 binding: i

CCCN(C)C[C@H]1Oc2cc(C#Cc3ccccn3)ccc2S(=O)(=O)N([C@@H](C)CO)C[C@H]1C
  FGF22 binding: i

CN(C)C(=O)[C@@H]1[C@@H](CO)[C@@H]2Cn3c(ccc(-c4ccncc4)c3=O)[C@H]1N2CC1CC1
  FGF22 binding: i

CO[C@H]1CN(C)C(=O)c2cc(NC(=O)Nc3ccccc3)ccc2OC[C@H](C)N(C(=O)Nc2c(C)noc2C)C[C@@H]1C
  FGF22 binding: i

The listing continues.
O=C(C[C@@H]1CC[C@H]2[C@@H](COC[C@@H](O)CN2C(=O)c2ccccc2F)O1)N1CCCCC1
  FGF22 binding: i

C[C@H]1CN([C@@H](C)CO)C(=O)c2cccc(NC(=O)Nc3ccc(F)cc3)c2O[C@H]1CN(C)C(=O)Nc1ccc(C(F)(F)F)cc1
  FGF22 binding: i

COc1ccc(S(=O)(=O)Nc2ccc3c(c2)C(=O)N([C@@H](C)CO)C[C@H](C)[C@@H](CN(C)Cc2ccc(C(F)(F)F)cc2)OCCCC[C@@H](C)O3)cc1
  FGF22 binding: i

Cc1noc(C)c1S(=O)(=O)Nc1ccc2c(c1)C(=O)N([C@H](C)CO)C[C@@H](C)[C@@H](CN(C)C(=O)Nc1ccc(C(F)(F)F)cc1)O2
  FGF22 binding: i

C[C@H](CO)N1C[C@H](C)[C@H](CN(C)S(C)(=O)=O)Oc2ccc(NC(=O)C3CC3)cc2C1=O
  FGF22 binding: i

C[C@H]1CN([C@@H](C)CO)C(=O)CCCn2nncc2CO[C@H]1CN(C)Cc1ccc2cccnc2c1
  FGF22 binding: i

C[C@@H]1CN([C@H](C)CO)C(=O)c2cccc(NC(=O)c3ccc(-c4nccs4)cc3)c2O[C@H]1CN(C)S(C)(=O)=O
  FGF22 binding: i

C[C@@H]1CN([C@@H](C)CO)C(=O)c2cc(NC(=O)c3ccccc3)ccc2O[C@@H](C)CCCCO[C@H]1CN(C)C(=O)Cc1ccccc1
  FGF22 binding: i

O=C(C1CCCC1)N1C[C@@H]2[C@H](c3ccccc31)[C@H](CO)N2C(=O)c1ccccc1
  FGF22 binding: i

COC(=O)C1(F)C(=O)NC(=O)NC1OC (stereo not drawn)
  FGF22 binding: i

C[C@H](CO)N1C[C@H](C)[C@@H](CN(C)Cc2ccc3c(c2)OCO3)Oc2ccc(NC(=O)C3CCCCC3)cc2CC1=O
  FGF22 binding: i

COc1ccccc1C#Cc1cnc2c(c1)C(=O)N([C@H](C)CO)C[C@@H](C)[C@H](CN(C)S(=O)(=O)c1cn(C)cn1)O2
  FGF22 binding: i

COc1ccc2c3c(n(C)c2c1)[C@@H](CO)N(C(=O)C1CC1)CC31CCN(CC2CCCC2)CC1
  FGF22 binding: i

O=C(N[C@@H]1CC[C@@H](CC(=O)N2CCC(Cc3ccccc3)CC2)O[C@@H]1CO)c1cnccn1
  FGF22 binding: i

COCC(=O)Nc1ccc2c(c1)C(=O)N(C)[C@@H]1CC[C@@H](CC(=O)NCC(F)(F)F)O[C@@H]1CO2
  FGF22 binding: i

C[C@H]1CN([C@@H](C)CO)C(=O)Cc2cc(NS(C)(=O)=O)ccc2O[C@H]1CN(C)C(=O)Nc1ccc(F)cc1
  FGF22 binding: i

Cc1ccc(-c2ccc3c(c2)O[C@@H](CN(C)C(=O)Nc2ccc(C(F)(F)F)cc2)[C@H](C)CN([C@@H](C)CO)S3(=O)=O)cc1
  FGF22 binding: i

Cc1ccc(-c2cnc3c(c2)C(=O)N([C@@H](C)CO)C[C@@H](C)[C@H](CN(C)S(C)(=O)=O)O3)cc1
  FGF22 binding: i

O=C(NCc1cccc(F)c1)[C@@H]1[C@@H](CO)[C@@H]2Cn3c(cccc3=O)[C@H]1N2C(=O)c1cnccn1
  FGF22 binding: i

COc1ccc(NC(=O)Nc2ccc3c(c2)C(=O)N([C@@H](C)CO)C[C@@H](C)[C@@H](CN(C)C(=O)Nc2ccc4c(c2)OCO4)O3)cc1
  FGF22 binding: i

COc1ccccc1NC(=O)N1C[C@H](O)COC[C@H]2O[C@@H](CC(=O)N3CCC(Cc4ccccc4)CC3)CC[C@@H]21
  FGF22 binding: i

O=C(C1CC1)N1C[C@H]2[C@@H](c3ccccc31)[C@H](CO)N2C(=O)c1ccccn1
  FGF22 binding: i

CN(C)C(=O)c1ccc(-c2ccc([C@H]3[C@@H](CO)N4CCCCN(C(=O)C5CC5)C[C@@H]34)cc2)cc1
  FGF22 binding: i

COc1ccc(CNC(=O)c2cc3c(c(-c4cccc(-c5ccc(C#N)cc5)c4)n2)[C@@H](CCO)N([S@](=O)C(C)(C)C)C3)cc1
  FGF22 binding: i

CC(C)NC(=O)N(C)C[C@@H]1Oc2cc(-c3ccncc3)ccc2S(=O)(=O)N([C@H](C)CO)C[C@H]1C
  FGF22 binding: i

C[C@H](CO)N1C[C@H](C)[C@H](CN(C)C(=O)c2ccccc2)OCCCC[C@H](C)Oc2ccc(NC(=O)c3ccccc3)cc2C1=O
  FGF22 binding: i

COc1ccccc1S(=O)(=O)N[C@@H]1C=C[C@@H](CC(=O)N2CCN(C)CC2)O[C@H]1CO
  FGF22 binding: i

C[C@@H]1CN([C@H](C)CO)C(=O)c2cc(NC(=O)CCCCCC(=O)Nc3ccccc3N)ccc2O[C@H]1CN(C)C(=O)Nc1ccc(C(F)(F)F)cc1
  FGF22 binding: i

Cc1noc(C)c1S(=O)(=O)Nc1ccc2c(c1)CC(=O)N([C@H](C)CO)C[C@H](C)[C@H](CN(C)Cc1ccncc1)O2
  FGF22 binding: i

COc1ccc(S(=O)(=O)Nc2cccc3c2O[C@@H](CN(C)C(=O)Nc2ccc4c(c2)OCO4)[C@H](C)CN([C@H](C)CO)C3=O)cc1
  FGF22 binding: i

CC(C)CC#Cc1cnc2c(c1)C(=O)N([C@@H](C)CO)C[C@@H](C)[C@H](CN(C)S(=O)(=O)c1ccccc1)O2
  FGF22 binding: i

CC(C)C#Cc1ccc([C@H]2[C@@H](CO)N(C(=O)C3CC3)[C@H]2C#N)cc1
  FGF22 binding: i

CO[C@H]1CN(C)C(=O)c2ccc(NC(=O)NC(C)C)cc2OC[C@H](C)N(Cc2ccccc2)C[C@H]1C
  FGF22 binding: i

CC(C)NC(=O)N(C)C[C@H]1Oc2ccc(NC(=O)Cc3cn(C)c4ccccc34)cc2CC(=O)N([C@H](C)CO)C[C@@H]1C
  FGF22 binding: i

Cc1noc(C)c1S(=O)(=O)Nc1ccc2c(c1)CC(=O)N([C@@H](C)CO)C[C@@H](C)[C@H](CN(C)CC1CC1)O2
  FGF22 binding: i

CCNC(=O)Nc1ccc2c(c1)C(=O)N(C)[C@H]1CC[C@@H](CC(=O)NCCN3CCCC3)O[C@@H]1CO2
  FGF22 binding: i

COc1ccc(S(=O)(=O)Nc2ccc3c(c2)C(=O)N([C@H](C)CO)C[C@@H](C)[C@H](CN(C)Cc2ccccc2)O3)cc1
  FGF22 binding: i

CCC(=O)N(C)C[C@H]1Oc2ncc(-c3ccc(C(=O)N(C)C)cc3)cc2C(=O)N([C@@H](C)CO)C[C@@H]1C
  FGF22 binding: i

CN(C)C(=O)[C@@H]1[C@@H](CO)[C@@H]2Cn3c(ccc(-c4ccccc4)c3=O)[C@H]1N2C(=O)C1CC1
  FGF22 binding: i

C[C@@H]1CN([C@@H](C)CO)C(=O)c2cc(-c3ccccc3F)cnc2O[C@@H]1CN(C)C(=O)C1CC1
  FGF22 binding: i

O=C(Nc1ccc(Cl)c(Cl)c1)N[C@@H]1CC[C@@H](CCn2cc(C3CCCC3)nn2)O[C@H]1CO
  FGF22 binding: i

CC(=O)N1CC2(C1)[C@H](c1ccc(-c3ccc(C#N)cc3)cc1)[C@@H](CO)N2C(C)=O
  FGF22 binding: i

CCCC#Cc1ccc([C@@H]2[C@@H](CO)N(C(=O)C3CCCC3)[C@H]2C#N)cc1
  FGF22 binding: i

O=S(=O)(N[C@@H]1CC[C@@H](CCn2cc(-c3ccccc3F)nn2)O[C@@H]1CO)c1ccc(F)cc1
  FGF22 binding: i

Cc1noc(C)c1S(=O)(=O)N(C)C[C@H]1OCCCC[C@H](C)Oc2ccc(NC(=O)Nc3ccccc3)cc2C(=O)N([C@@H](C)CO)C[C@@H]1C
  FGF22 binding: i

CCCNC(=O)N1[C@H](CO)[C@@H](c2ccccc2-c2cccc(C)c2)[C@@H]1C#N
  FGF22 binding: i

C[C@@H]1CN([C@@H](C)CO)C(=O)Cc2cc(NC(=O)Cc3cn(C)c4ccccc34)ccc2O[C@@H]1CN(C)S(C)(=O)=O
  FGF22 binding: i

O=C(NCC[C@@H]1CC[C@H](NC(=O)C2CC2)[C@@H](CO)O1)Nc1ccc(Cl)cc1
  FGF22 binding: i

COc1ccc(S(=O)(=O)Nc2ccc3c(c2)C(=O)N([C@H](C)CO)C[C@@H](C)[C@H](CN(C)C(=O)Nc2ccc(F)cc2)OCCCC[C@H](C)O3)cc1
  FGF22 binding: i

O=C(O)C[C@@H]1C[C@H]2c3cc(NC(=O)Nc4ccc(C(F)(F)F)cc4)ccc3O[C@H]2[C@H](CO)O1
  FGF22 binding: i

COC(=O)C1=C(C)N(Cc2ccccc2C(F)(F)F)C(=NCc2cc(OC)c(OC)c(OC)c2)NC1c1cccc(Cl)c1 (stereo not drawn)
  FGF22 binding: i

COc1ccc2c3c([nH]c2c1)[C@@H](CO)N(C(=O)c1cnccn1)CC31CN(C(=O)c2cnccn2)C1
  FGF22 binding: i

C[C@H](CO)N1C[C@H](C)[C@H](CN(C)C(=O)C2CCCCC2)OCCCC[C@H](C)Oc2ccc(NS(=O)(=O)c3cccs3)cc2C1=O
  FGF22 binding: i

N#C[C@H]1[C@H](c2ccccc2-c2cccc(F)c2)[C@H](CO)N1C(=O)C1CCC1
  FGF22 binding: i

C[C@H](CO)N1C[C@H](C)[C@@H](CN(C)S(C)(=O)=O)Oc2ccc(NC(=O)c3ccncc3)cc2CC1=O
  FGF22 binding: i

Cc1noc(C)c1S(=O)(=O)N(C)C[C@H]1OCCCC[C@@H](C)Oc2ccc(NS(=O)(=O)c3ccc(Cl)cc3)cc2C(=O)N([C@@H](C)CO)C[C@H]1C
  FGF22 binding: i

Cc1noc(C)c1NC(=O)N(C)C[C@H]1Oc2ccc(N(C)C)cc2C(=O)N([C@@H](C)CO)C[C@H]1C
  FGF22 binding: i

C[C@H]1CN([C@@H](C)CO)C(=O)c2cc(N(C)C)ccc2O[C@@H]1CN(C)C(=O)Nc1ccc(F)cc1
  FGF22 binding: i

C[C@@H]1CN([C@H](C)CO)S(=O)(=O)c2ccc(C#Cc3ccncc3)cc2O[C@H]1CN(C)S(=O)(=O)c1ccccc1
  FGF22 binding: i

C[C@@H]1CN([C@H](C)CO)C(=O)c2cccc(NS(=O)(=O)c3ccc(Cl)cc3)c2O[C@@H]1CN(C)Cc1ccc(C(=O)Nc2ccccc2N)cc1
  FGF22 binding: i

COc1ccccc1S(=O)(=O)N[C@H]1CC[C@@H](CCn2cc(C3CCCCC3)nn2)O[C@H]1CO
  FGF22 binding: i

CNC(=O)C[C@@H]1CC[C@@H]2[C@H](COc3ccc(NC(=O)Nc4cc(C)cc(C)c4)cc3C(=O)N2C)O1
  FGF22 binding: i

Cc1ccc(S(=O)(=O)N(C)C[C@H]2Oc3ccc(NC(=O)Nc4c(C)noc4C)cc3CC(=O)N([C@H](C)CO)C[C@@H]2C)cc1
  FGF22 binding: i

C[C@@H]1CN([C@H](C)CO)C(=O)c2cc(NC(=O)Cc3ccccc3)ccc2O[C@@H](C)CCCCO[C@@H]1CN(C)Cc1ccc(Cl)c(Cl)c1
  FGF22 binding: i

CN1C(=O)c2cc(NC(=O)c3ccc(F)c(F)c3)ccc2OC[C@H]2O[C@H](CC(=O)N3CCCCC3)CC[C@@H]21
  FGF22 binding: i

COc1ccc(CN(C)C[C@H]2Oc3ccc(NS(=O)(=O)c4ccc(F)cc4)cc3CC(=O)N([C@@H](C)CO)C[C@@H]2C)cc1
  FGF22 binding: i

These rows are one share of the data; the hit share may differ from the screen's.
